High-throughput results as filed in PubChem BioAssay.
SENP1 FRET inh – SENP1 (human) catalytic domain inhibition; 0.21% of 360,000 active; recombinant SENP1 catalytic domain, CyPet-SUMO1-YPet FRET cleavage; inhibition, % at 10 µM;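 active = inhibition at least 30% at 10 µM, raw YFP signal under a set limit, fluorescence ratio 0.5 to 1.5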;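 also: 0% = enzyme with DMSO and 100% = no enzyme wells; some results filed as inactive read as strong as hits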
Target sequence (Q9P0U3 419-644 limits assumed): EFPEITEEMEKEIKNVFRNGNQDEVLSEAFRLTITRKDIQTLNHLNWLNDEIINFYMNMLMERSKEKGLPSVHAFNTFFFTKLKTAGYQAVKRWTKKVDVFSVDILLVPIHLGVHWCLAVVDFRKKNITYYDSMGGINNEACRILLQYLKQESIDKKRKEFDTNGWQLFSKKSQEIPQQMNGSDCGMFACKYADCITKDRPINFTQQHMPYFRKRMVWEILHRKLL
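Test system: recombinant human SENP1 catalytic domain, His6-tagged / Medium: pH 8 Tris buffer with EDTA, NaCl, BME, BSA, NP40, catalase / Also added: SUMO1 FRET substrate flanked by Cypet and Ypet, 25 nM / Times: 50 min reaction at room temperature / Signal: FRET, CFP and YFP emission / Control set: no-enzyme low control and enzyme-plus-DMSO high control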
MPTP inh – blocks calcium-induced mitochondrial swelling; 1.4% of 360,000 active; isolated mouse mitochondria, Ca2+ swelling absorbance, 30 min; inhibition, % at 10 µM;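 active = inhibition of 50% or more, scaled per plate between neutral and stimulator controls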;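 also: 0% = DMSO wells given calcium and 100% = 1 mM EGTA wells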
ATG4B inh – blocks human ATG4B protease cleavage of LC3 substrate. ATG4B cleavage of LC3-PLA2, NBD-HPC fluorescence, 1 h. inhibition, % at 8.33 µM. 0.51% of 340,000 active. AID 504462; in the data active = inhibition above about 40%
hIAP act – increases human intestinal alkaline phosphatase activity; activation factor at 10 µM; AID 2524; 0.16% of 330,000 active; purified human IAP, CDP-Star luminescence, 30 min; stronger effect = higher value; 1 = vehicle-only enzyme, 0 = enzyme-free background;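 active = activation factor of the enzyme at least 2-fold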; also: the source names both 10 and 20 µM as test concentration; values of inactives mirror those of a sister screen read the other way
Target sequence (P09923 whole entry, looked up): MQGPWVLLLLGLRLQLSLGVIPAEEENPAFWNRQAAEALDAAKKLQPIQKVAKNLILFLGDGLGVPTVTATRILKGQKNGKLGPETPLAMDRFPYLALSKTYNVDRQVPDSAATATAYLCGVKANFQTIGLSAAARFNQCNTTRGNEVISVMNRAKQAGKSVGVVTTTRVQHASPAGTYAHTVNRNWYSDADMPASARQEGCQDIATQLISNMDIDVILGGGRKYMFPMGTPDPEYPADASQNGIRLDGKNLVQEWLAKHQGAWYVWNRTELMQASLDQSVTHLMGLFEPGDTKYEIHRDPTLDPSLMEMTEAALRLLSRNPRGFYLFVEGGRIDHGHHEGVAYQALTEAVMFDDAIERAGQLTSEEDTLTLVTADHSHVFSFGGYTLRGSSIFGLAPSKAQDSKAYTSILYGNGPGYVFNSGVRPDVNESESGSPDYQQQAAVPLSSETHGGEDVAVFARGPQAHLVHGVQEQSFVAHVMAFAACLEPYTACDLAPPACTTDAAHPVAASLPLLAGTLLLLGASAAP
PfG6PD inh – PfG6PD (Plasmodium falciparum) enzyme inhibition; PfGluPho enzyme, NADPH resazurin-diaphorase fluorescence; 0.78% of 350,000 active; inhibition, % at 20 µM;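 active = inhibition reaching at least a set limit at 20 µM in the primary screen, cut at about 59% in these data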;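 also: 0% = DMSO wells with substrate and 100% = DMSO wells lacking glucose-6-phosphate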
GRIN3A LBD mod – modulators (binders) of human NR3A ligand-binding domain. NR3A LBD differential scanning fluorimetry, Tm shift; 0% = protein alone, 100% = glycine-bound protein. Tm shift relative to glycine control, % at 25 µM. 2.5% of 340,000 active. AID 1259313;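 active = melting temperature shift of at least 10% of the positive control shift, at one fixed dose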
* hit, by the source's call.

entry | SMILES | hIAP act | MPTP inh | GRIN3A LBD mod
1 | COc1ccc(Nc2cc(NCCCO)c([N+](=O)[O-])c3nonc23)cc1 | 0.86 | 0.4 | -1
2 | COc1ccc(NC(=O)C(=O)NNC(=O)c2cccs2)cc1 | 0.82 | -0.4 | -43
3 | COc1ccc(NC(=O)c2ccc3ccccc3c2)cc1 | 1.2 | 0.9 | 0
4 | COc1cc(OC)cc(-c2cc3cc(F)ccc3cn2)c1 | 0.9 | 0.4 | 0
5 | CCOC(=O)C(C)On1c(-c2cccc(Cl)c2)nc2ccc([N+](=O)[O-])cc21 (configuration not stated) | 0.94 | 87* | 10*
6 | Cc1cccc(-c2noc(-c3ccoc3C)n2)c1 | 1.1 | 2.4 | 0
7 | COc1ccc(C)cc1NC(=O)Nc1ccc(C(=O)N2CCCC2)cc1 | 0.96 | 0.0 | 1
8 | COC(=O)c1ccc(NC(=O)c2ccc(OC(C)=O)c(OC)c2)cc1 | 1 | 0.6 | 0
9 | COc1nccnc1NS(=O)(=O)c1ccc(NC(=S)NC(=O)c2ccccc2)cc1 | 1.1 | 0.9 | 0
10 | CCCCOC(=O)c1ccc(NC(=O)c2ccoc2C)cc1 | 0.94 | 15 | -8

entry | ATG4B inh | PfG6PD inh | SENP1 FRET inh
1 | 4 | -1 | 3
2 | -3 | -21 | 0
3 | 0 | 9 | 2
4 | -10 | 51 | 0
5 | -10 | 64* | -1
6 | -3 | 14 | -4
7 | 0 | 12 | 2
8 | -39 | 10 | 0
9 | -7 | 11 | 1
10 | -4 | 14 | 1

Another view of part of the listing above:
cpd	SMILES	hIAP act	MPTP inh	GRIN3A LBD mod	ATG4B inh	PfG6PD inh	SENP1 FRET inh
3	COc1ccc(NC(=O)c2ccc3ccccc3c2)cc1	1.2	0.9	0	0	9	2
4	COc1cc(OC)cc(-c2cc3cc(F)ccc3cn2)c1	0.9	0.4	0	-10	51	0
5	CCOC(=O)C(C)On1c(-c2cccc(Cl)c2)nc2ccc([N+](=O)[O-])cc21 (configuration not stated)	0.94	87*	10*	-10	64*	-1
6	Cc1cccc(-c2noc(-c3ccoc3C)n2)c1	1.1	2.4	0	-3	14	-4
7	COc1ccc(C)cc1NC(=O)Nc1ccc(C(=O)N2CCCC2)cc1	0.96	0.0	1	0	12	2
8	COC(=O)c1ccc(NC(=O)c2ccc(OC(C)=O)c(OC)c2)cc1	1	0.6	0	-39	10	0

Remaining list, next part.
entry | SMILES | hIAP act | MPTP inh | GRIN3A LBD mod
11 | O=C(COc1ccc(-c2ccccc2)cc1)N1CCCC1 | 0.92 | 2.5 | 0
12 | COC(=O)c1sccc1NC(=O)/C=C/c1c(Cl)cccc1Cl | 0.85 | 0.8 | 4
13 | Cc1ccnc(NC(=O)CCC2CCCCC2)c1 | 1 | 1.0 | -1
14 | Cc1ccc(OCC(=O)Nc2ccccc2F)cc1 | 1.1 | 1.5 | 0
15 | Cc1cccc(N2C(=O)c3ccc(C(=O)Nc4cccc(C(=O)O)c4)cc3C2=O)c1 | 1 | -0.7 | 12*
16 | Brc1ccc(-c2cn3ccccc3n2)cc1 | 1 | 0.2 | 0
17 | COc1ccccc1NC(=O)Nc1ccc(NC(=O)c2ccccc2O)cc1 | 1 | 0.0 | 32*
18 | O=C(Nc1nc2c(s1)CCCC2=O)c1cnccn1 | 0.84 | -2.1 | 1
19 | CCCOc1ccc(-c2nnc(-c3cccs3)o2)cc1 | 1.1 | -0.2 | 0
20 | COc1ccc(Cl)cc1NC(=O)Nc1ccc(C(=O)N2CCCC2)cc1 | 1.3 | -0.7 | -6

entry | ATG4B inh | PfG6PD inh | SENP1 FRET inh
11 | -7 | 7 | 3
12 | -3 | 5 | 3
13 | 6 | 1 | 0
14 | 2 | 8 | -2
15 | 6 | -10 | 0
16 | 1 | 50 | 4
17 | 1 | 6 | 2
18 | -5 | -15 | 3
19 | 2 | 1 | 2
20 | 13 | 7 | 2

Along the list, from the results shown:
Compounds 11–20 in GRIN3A LBD mod, in turn: 0, 4, -1, 0, 12*, 0, 32*, 1, 0, -6

(continued)
entry | SMILES | hIAP act | MPTP inh | GRIN3A LBD mod
21 | COC(=O)c1sccc1NC(=O)Nc1cccc(C)c1 | 0.98 | 3.9 | -1
22 | O=C(Nc1ccc(NC(=O)c2ccco2)c(Cl)c1)c1ccccc1 | 1.1 | 0.5 | -1
23 | Cc1nc2n[nH]c(N)c2c2c1CCCC2 | 0.94 | 0.6 | 0
24 | COc1cc(OC)cc(-c2cc3cc4c(cc3cn2)OCO4)c1 | 0.96 | 4.4 | -13
25 | Clc1ccc(-c2cn3ccccc3n2)cc1 | 1.2 | 0.0 | 2
26 | Cc1nc(-c2ccc(C(=O)Nc3cccc(Br)c3)cc2)cs1 | 0.96 | 17 | 32*
27 | Cc1ccccc1-c1nnc(-c2cccs2)o1 | 1 | 0.7 | 0
28 | COc1ccccc1OCc1ccc(C(=O)Nc2ccccc2)cc1 | 1.1 | -0.8 | -15
29 | Cc1cc(NC(=O)c2ccc(Br)o2)ccc1NC(=O)c1ccco1 | 0.84 | -1.2 | -14
30 | Cc1cc(/C=C2\SC(=S)N(C)C2=O)c(C)n1-c1ccc(O)cc1 | 0.91 | 38 | 5

entry | ATG4B inh | PfG6PD inh | SENP1 FRET inh
21 | -16 | 37 | 2
22 | -9 | 14 | -1
23 | -2 | -2 | 1
24 | -15 | 13 | -2
25 | 6 | 31 | -1
26 | -4 | -6 | 2
27 | 1 | -1 | 3
28 | 2 | 4 | 0
29 | -19 | 28 | 0
30 | 8 | 36 | -32

Structures listed so far printed as active in MPTP inh:
entry | SMILES | hIAP act | MPTP inh | GRIN3A LBD mod
5 | CCOC(=O)C(C)On1c(-c2cccc(Cl)c2)nc2ccc([N+](=O)[O-])cc21 (configuration not stated) | 0.94 | 87* | 10*

entry | ATG4B inh | PfG6PD inh | SENP1 FRET inh
5 | -10 | 64* | -1

Remaining list, next part
entry | SMILES | hIAP act | MPTP inh | GRIN3A LBD mod
31 | Cc1ccc(-n2cc(C(=O)c3ccc(F)cc3)nn2)cc1Cl | 1.1 | -1.4 | 5
32 | CC(=O)c1sc(NC(=O)c2ccc(F)c(F)c2)nc1C | 0.96 | -1.5 | -2
33 | COC(=O)c1sccc1NC(=O)Nc1ccc(C)cc1 | 0.81 | 2.5 | -1
34 | Cc1cc(N)n2nc(-c3ccc(C(C)(C)C)cc3)cc2n1 | 1.1 | -2.2 | -14
35 | Cc1ccc(OC(=O)c2cccc(S(=O)(=O)N(C)C)c2)c(-n2nc3ccccc3n2)c1 | 1.1 | -1.0 | -1
36 | COC(=O)c1ccc(NC(=O)Nc2ccccc2F)cc1 | 0.99 | 54* | 4
37 | COc1ccc(-c2noc(-c3cccc(OC)c3OC)n2)cc1OC | 0.86 | -0.3 | 2
38 | O=C1COc2ccc(C(=O)COC(=O)c3ccccc3Cl)cc2N1 | 0.88 | 0.6 | 0
39 | O=C(COc1ccccc1Cl)N1CCc2ccccc21 | 1 | 0.6 | 1
40 | CC(=O)Nc1ccc(NC(=O)CSc2ncc(C(=O)Nc3ccccc3)c(=O)n2C)cc1 | 1.2 | -0.7 | -1

entry | ATG4B inh | PfG6PD inh | SENP1 FRET inh
31 | -3 | -4 | -4
32 | -6 | 29 | 0
33 | -12 | 29 | 1
34 | -5 | 84* | 2
35 | 3 | 17 | 0
36 | -18 | 20 | 1
37 | -2 | 3 | 2
38 | 4 | -7 | -1
39 | -6 | 12 | -1
40 | 3 | -14 | 0

Three entries already listed, sorted by the value under GRIN3A LBD mod, smallest number first:
entry | SMILES | hIAP act | MPTP inh | GRIN3A LBD mod
40 | CC(=O)Nc1ccc(NC(=O)CSc2ncc(C(=O)Nc3ccccc3)c(=O)n2C)cc1 | 1.2 | -0.7 | -1
12 | COC(=O)c1sccc1NC(=O)/C=C/c1c(Cl)cccc1Cl | 0.85 | 0.8 | 4
5 | CCOC(=O)C(C)On1c(-c2cccc(Cl)c2)nc2ccc([N+](=O)[O-])cc21 (configuration not stated) | 0.94 | 87* | 10*

entry | ATG4B inh | PfG6PD inh | SENP1 FRET inh
40 | 3 | -14 | 0
12 | -3 | 5 | 3
5 | -10 | 64* | -1

This is a subset, so the mix of outcomes need not match the whole.
